Compound activity deposited in PubChem BioAssay by Broad Institute.
MITF inh – inhibitors of MITF, primary screen, MITF inhibitor project, cell-based, luminescence; TRPM1 promoter luciferase, 24 h; AID 2240, 2010; 0.28% of 37,000 active; inhibition, % (test concentration not listed);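 active = most replicates at 85% or more, or half of them and the mean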;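 also: human melanocyte line stably carrying TRPM1 promoter luciferase reporter; 0% = vehicle wells and 100% = a positive control; the first replicate is given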
Shh pathway inh – Hedgehog pathway signaling inhibitors, primary screen, luminescence, Shh-LIGHT2 cells, Gli-luciferase; Shh-LIGHT2 Gli-luciferase reporter, 30 h; inhibition, % (concentration not given with the values); 2.1% of 22,000 active; AID 2313, 2010;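 active = replicate mean of 65% or more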;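 also: pathway switched on by Shh-conditioned medium diluted 1 in 25 in low serum; 100 nL library stock added to about 40 µL; 0% = median of neutral wells and 100% = positive control level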
YB-1 expression – inhibitors of YB-1 gene expression, primary screen, cell-based, fluorescence; AID 434959, 2010; delta delta Cp (YB-1 minus CDIP) (no concentration beside the values); 0.37% of 30,000 active; U2OS, qRT-PCR YB-1 vs CDIP delta delta Cp, 16 h; hits give high values; zero = DMSO, each unit about twofold;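 active = delta delta Cp rounded down to an integer at or above 3, about 3 SD of DMSO wells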;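 also: higher means less YB-1 transcript or more CDIP transcript relative to DMSO; stock transfer was 100 nL into about 100 µL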
PD-1 reverse act – activators reversing PD-1 mediated T-cell inhibition, primary screen, luminescence, primary human CD4 T cells, PD-L1 beads. CellTiter-Glo 96 h. activation, % (no concentration beside the values). 29,000 tested, under 10 active. AID 2316, 2010;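 active = replicate mean of 50% or more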;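 also: 0% = median vehicle wells and 100% = positive control; 100 nL library stock added to about 50 µL; numbers are from one replicate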
* = called active by the depositor; · = not tested or not shown. Only part of the results is shown. The share of hits here may be higher or lower than overall.

Each structure is followed by: MITF inh	Shh pathway inh	YB-1 expression	PD-1 reverse act
1: C[C@@H]1CN([C@@H](C)CO)C(=O)c2cccc(NC(=O)CCCCCC(=O)Nc3ccccc3N)c2O[C@@H]1CN(C)C(=O)Nc1ccc2c(c1)OCO2
    -14	·	-0.037	-0.8
2: Nc1c(C(=O)c2ccc(Cl)cc2)oc2nc(-c3ccco3)cc(-c3cccs3)c12
    1	·	-0.39	0.1
3: NNC(=O)Cn1nnc(N2CCCC2)n1
    -7	·	0.8	-0.2
4: C[C@@H]1CN([C@@H](C)CO)C(=O)c2cc(NC(=O)Nc3ccc(F)cc3)ccc2O[C@H]1CN(C)S(=O)(=O)c1cccs1
    -34	·	0.16	-2.2
5: C[C@@H]1CN([C@H](C)CO)C(=O)c2cc(NC(=O)c3ccncc3)ccc2O[C@H]1CN(C)S(=O)(=O)c1cn(C)cn1
    -9	-2	0.074	1.4
6: C[C@H](CO)N1C[C@H](C)[C@@H](CN(C)Cc2ccc3c(c2)OCO3)Oc2c(NC(=O)Nc3cccc4ccccc34)cccc2C1=O
    18	25	-0.11	·
7: C[C@@H]1CN([C@H](C)CO)C(=O)c2cc(NC(=O)Nc3ccc4c(c3)OCO4)ccc2O[C@@H]1CN(C)S(=O)(=O)c1cn(C)cn1
    -7	-81	-0.48	0.7
8: C[C@@H]1CN([C@@H](C)CO)C(=O)c2cccc(NS(=O)(=O)c3ccccc3)c2O[C@H]1CN(C)S(=O)(=O)c1cn(C)cn1
    -3	3	0.47	0.7
9: Cc1noc(C)c1NC(=O)N(C)C[C@@H]1Oc2ccc(NC(=O)NC3CCCCC3)cc2C(=O)N([C@@H](C)CO)C[C@H]1C
    3	21	-0.13	1.9
10: C[C@@H]1CN([C@H](C)CO)C(=O)c2cccc(NC(=O)Nc3ccc(F)cc3)c2O[C@H]1CN(C)S(=O)(=O)c1ccccc1
    11	-5	0.022	-2.3
11: O=C(Nc1ccc(C2=NCCO2)cc1)c1ccc(C(F)(F)F)cc1
    7	-64	-0.077	1.3
12: COc1ccc(NC(=O)Nc2cccc3c2O[C@@H](CN(C)S(=O)(=O)c2ccc(Cl)cc2)[C@@H](C)CN([C@H](C)CO)C3=O)cc1
    -13	92*	-0.24	·
13: COc1ccccc1NC(=O)CN(c1cc(Cl)c(Cl)cc1Cl)S(C)(=O)=O
    8	·	·	0.8
14: Cc1noc(C)c1S(=O)(=O)Nc1ccc2c(c1)C(=O)N([C@@H](C)CO)C[C@H](C)[C@@H](CN(C)S(=O)(=O)c1cccs1)O2
    -1	-21	-0.36	-1.7
15: C[C@@H]1CN([C@H](C)CO)C(=O)c2cc(NC(=O)Cc3cn(C)c4ccccc34)ccc2O[C@@H]1CN(C)Cc1ccc(Cl)c(Cl)c1
    49	24	0.24	-2.8
16: C[C@@H]1CN([C@H](C)CO)C(=O)Cc2cc(NC(=O)Nc3ccc(C(F)(F)F)cc3)ccc2O[C@@H]1CN(C)Cc1ccncc1
    20	-6	-0.094	-2.9
17: C[C@H](CO)N1C[C@H](C)[C@H](CN(C)Cc2ccc(Cl)c(Cl)c2)Oc2ccc(NC(=O)CCCN(C)C)cc2C1=O
    -3	2	0.2	1.7
18: CNC[C@H]1Oc2c(NC(=O)Nc3c(C)noc3C)cccc2C(=O)N([C@@H](C)CO)C[C@H]1C
    -1	11	-0.32	·
19: Cc1cccc(NC(=O)c2ccccc2NC(=O)COc2ccccc2)c1C
    2	·	·	-0.3
20: CC(C)(Oc1ccc(Cl)cc1)C(=O)O
    -8	-73	-0.23	·

Exported with bars between the fields: part of the list above.
# | SMILES | MITF inh | Shh pathway inh | YB-1 expression | PD-1 reverse act
15 | C[C@@H]1CN([C@H](C)CO)C(=O)c2cc(NC(=O)Cc3cn(C)c4ccccc34)ccc2O[C@@H]1CN(C)Cc1ccc(Cl)c(Cl)c1 | 49 | 24 | 0.24 | -2.8
16 | C[C@@H]1CN([C@H](C)CO)C(=O)Cc2cc(NC(=O)Nc3ccc(C(F)(F)F)cc3)ccc2O[C@@H]1CN(C)Cc1ccncc1 | 20 | -6 | -0.094 | -2.9

Further compounds follow.
Each structure is followed by: MITF inh	Shh pathway inh	YB-1 expression	PD-1 reverse act
21: C[C@H]1CN([C@@H](C)CO)C(=O)c2cc(NC(=O)C3CC3)ccc2O[C@@H]1CN(C)Cc1ccc(Oc2ccccc2)cc1
    -3	·	-0.22	0.9
22: C[C@@H]1CN([C@@H](C)CO)C(=O)c2cc(NC(=O)Nc3ccccc3)ccc2O[C@H]1CN(C)Cc1ccc(Oc2ccccc2)cc1
    24	·	0.19	-1.2
23: COc1ccc(NC(=O)N(C)C[C@H]2Oc3ccc(NC(=O)NC(C)C)cc3C(=O)N([C@H](C)CO)C[C@@H]2C)cc1
    -3	-8	0.28	1.3
24: C[C@@H]1CN([C@@H](C)CO)C(=O)c2cc(NC(=O)Nc3ccc(C(F)(F)F)cc3)ccc2O[C@@H]1CN(C)Cc1ccc(C(=O)O)cc1
    6	-70	·	2.8
25: C[C@H](CO)N1C[C@H](C)[C@H](CN(C)C(=O)Nc2ccc(C(F)(F)F)cc2)Oc2ccc(NC(=O)CCCCCC(=O)Nc3ccccc3N)cc2C1=O
    8	·	0.31	0.2
26: C[C@H]1CN([C@@H](C)CO)C(=O)c2cc(NC(=O)CCC(F)(F)F)ccc2O[C@@H]1CN(C)S(=O)(=O)c1ccccc1
    3	-15	0.31	2.4
27: COc1ccc(OC)c(S(=O)(=O)N2CCC(C(=O)Nc3ccc(Oc4ccccc4)cc3)CC2)c1
    53	·	·	-4.1
28: CNC[C@@H]1Oc2c(NC(=O)Nc3ccc(F)cc3)cccc2C(=O)N([C@@H](C)CO)C[C@H]1C
    -9	-71	-0.59	0.5
29: COc1ccc(CN(C)C[C@H]2Oc3ccc(NC(=O)Cc4cn(C)c5ccccc45)cc3C(=O)N([C@H](C)CO)C[C@@H]2C)cc1
    10	23	-0.48	·
30: C[C@H]1CN([C@@H](C)CO)C(=O)Cc2cc(NC(=O)CCN3CCOCC3)ccc2O[C@H]1CN(C)S(=O)(=O)c1ccc(F)cc1
    -5	0	0.23	·
31: C[C@@H]1CN([C@H](C)CO)C(=O)c2cccc(NC(=O)c3cnccn3)c2O[C@@H]1CN(C)Cc1ccncc1
    0	-11	0.0062	·
32: C[C@@H]1CN([C@H](C)CO)C(=O)c2cccc(NC(=O)c3ccc(-c4nccs4)cc3)c2O[C@H]1CN(C)Cc1ccc(C(=O)Nc2ccccc2N)cc1
    23	·	-0.66	-1.9
33: c1ccc2c(c1)CCc1c-2nc2ccccc2c1N1CCOCC1
    -8	4	-0.24	0.4
34: C[C@@H]1CN([C@@H](C)CO)C(=O)c2cc(NC(=O)C3CCCCC3)ccc2O[C@H]1CN(C)Cc1ccc(C(F)(F)F)cc1
    -5	·	0.023	-1.2
35: COc1ccc(N=C(C)c2c(C(F)(F)F)[nH]n(-c3nc4ccccc4s3)c2=O)cc1OC
    -17	-27	0.27	-0.6
36: C[C@@H]1CN([C@H](C)CO)C(=O)Cc2cc(NC(=O)c3ccncc3)ccc2O[C@H]1CN(C)C(=O)Nc1ccc2c(c1)OCO2
    -9	-25	1.1	0.5
37: Cc1cc(I)cnc1NC(=S)NC(=O)c1ccco1
    -49	·	·	0.4
38: C[C@@H]1CN([C@@H](C)CO)C(=O)c2cc(NC(=O)CCCN(C)C)ccc2O[C@H]1CN(C)C(=O)Nc1cccc2ccccc12
    5	-1	-0.28	1.2
39: Cc1noc(C)c1S(=O)(=O)Nc1ccc2c(c1)C(=O)N([C@@H](C)CO)C[C@@H](C)[C@@H](CN(C)C(=O)NC(C)C)O2
    4	·	-0.42	·
40: c1ccc2c(Cc3c[nH]c4ccccc34)c[nH]c2c1
    25	-23	-0.26	·
41: C[C@@H]1CN([C@@H](C)CO)C(=O)c2cccc(NS(=O)(=O)c3cn(C)cn3)c2O[C@H]1CN(C)Cc1ccncc1
    -5	-4	-0.14	1.4
42: C[C@@H]1CCCCO[C@H](CN(C)C(=O)NC2CCCCC2)[C@@H](C)CN([C@H](C)CO)C(=O)c2cc(NS(C)(=O)=O)ccc2O1
    -6	-30	0.32	0.9
43: C[C@@H]1CN([C@H](C)CO)C(=O)c2cccc(NS(=O)(=O)c3ccc(F)cc3)c2O[C@@H]1CN(C)C
    -4	15	-0.25	1.3
44: COc1ccc2[nH]cc(CCNC(=O)Nc3ccccc3)c2c1
    -1	·	·	1.8
45: C[C@H]1CN([C@@H](C)CO)C(=O)Cc2cc(NS(=O)(=O)c3ccc(F)cc3)ccc2O[C@H]1CN(C)C(=O)Nc1ccccc1
    -4	-3	-0.22	0.9
46: C[C@@H]1CN([C@H](C)CO)C(=O)c2cccc(NC(=O)C3CCCCC3)c2O[C@@H]1CN(C)Cc1ccc(C(=O)O)cc1
    1	-25	-0.044	0.2
47: CCOC(=O)CN1C(=O)C(O)(c2c[nH]c3ccccc23)c2ccccc21 (stereo not given)
    24	·	·	1.7
48: C[C@@H]1CN([C@H](C)CO)C(=O)Cc2cc(NS(=O)(=O)c3ccccc3)ccc2O[C@@H]1CN(C)Cc1ccc(Oc2ccccc2)cc1
    11	53	0.075	-4.2
49: C[C@H]1CN([C@@H](C)CO)C(=O)Cc2cc(NS(=O)(=O)c3ccccc3)ccc2O[C@H]1CN(C)Cc1ccncc1
    -12	52	0.027	2.1
50: C[C@H]1CN([C@@H](C)CO)C(=O)Cc2cc(NC(=O)Cc3ccccc3)ccc2O[C@H]1CN(C)C(=O)Nc1ccc2c(c1)OCO2
    -27	·	-0.058	·
51: Cc1c(Cl)cccc1NC(=O)Cn1cc(C(=O)c2cccs2)c2ccccc21
    61	·	·	-3.5
52: C[C@@H]1CCCCO[C@@H](CN(C)C)[C@@H](C)CN([C@H](C)CO)C(=O)c2cc(NS(C)(=O)=O)ccc2O1
    -13	·	0.37	-0.1
53: CC(C)NC(=O)N(C)C[C@H]1Oc2ccc(NS(C)(=O)=O)cc2CC(=O)N([C@@H](C)CO)C[C@H]1C
    -14	7	0.13	·
54: CCOC(=O)Nc1cc(=O)c2ccccc2o1
    -10	-56	0.056	3.3
55: Cc1ccc([N+](=O)[O-])cc1N(CC(=O)Nc1ccc(F)cc1F)S(C)(=O)=O
    -12	·	·	1.0
56: Cc1cc(C)c(OCC(=O)Nc2ccccc2C#N)c(Br)c1
    -29	·	·	-0.3
57: Cc1cc(C(=O)O)ccc1NC(=O)CCCC(=O)O
    13	·	·	1.4
58: C[C@H]1CN([C@@H](C)CO)C(=O)Cc2cc(NS(C)(=O)=O)ccc2O[C@@H]1CN(C)Cc1ccc(Cl)c(Cl)c1
    15	28	0.27	·
59: Cc1noc(C)c1S(=O)(=O)N(C)C[C@H]1OCCCC[C@@H](C)Oc2ccc(NS(=O)(=O)c3ccc(F)cc3)cc2C(=O)N([C@H](C)CO)C[C@@H]1C
    7	·	-0.068	·
60: C[C@H](CO)N1C[C@H](C)[C@@H](CN(C)Cc2ccc3c(c2)OCO3)Oc2ccc(NC(=O)Cc3ccccc3)cc2C1=O
    5	24	-0.088	·
61: Cc1noc(C)c1NC(=O)Nc1ccc2c(c1)C(=O)N([C@H](C)CO)C[C@@H](C)[C@H](CN(C)C)O2
    -4	·	0.44	0.9
62: CN1C(=O)[C@@]2(Cc3ccccc3)SSS[C@]1(CO)C(=O)N2C
    91*	70*	-0.56	-17
63: C[C@@H]1CN([C@@H](C)CO)C(=O)c2cc(NC(=O)C3CCCCC3)ccc2O[C@@H]1CN(C)Cc1ccc(C(=O)Nc2ccccc2N)cc1
    2	·	-0.12	-2.0
64: C[C@H]1CN([C@@H](C)CO)C(=O)c2cccc(NC(=O)NC3CCCCC3)c2O[C@H]1CN(C)Cc1ccccc1
    30	-7	-0.47	3.1
65: C[C@H]1CN([C@@H](C)CO)C(=O)Cc2cc(NC(=O)Nc3ccc(F)cc3)ccc2O[C@@H]1CN(C)Cc1ccc(C(F)(F)F)cc1
    14	-13	-0.16	·
66: CCCc1cc2c(-c3ccccc3)cc(=O)oc2cc1OCc1ccc(C(=O)O)o1
    -1	·	·	1.2
67: O=C(CCO[C@@H]1O[C@H](CO)[C@@H](O)[C@H](O)[C@H]1O)c1ccc(O)cc1
    ·	-31	0.056	·
68: CCSc1ncc(Cl)c(C(=O)Nc2nnc(SCc3ccccc3F)s2)n1
    17	·	·	1.7
69: C[C@@H]1CN([C@H](C)CO)C(=O)c2cc(NC(=O)Nc3ccc(F)cc3)ccc2O[C@@H]1CN(C)CC1CCCCC1
    -5	-11	0.06	·
